Source: PubChem
Arbovirus inh: arbovirus infection inhibition. arbovirus infection cell-based antiviral screen. inhibition, % at 10 µM. hit rate 0.37% among 200,000. AID 1251;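 active = inhibition from about 30%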;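 note: bluetongue infection of BSR cells; cell survival read as ATP light after 72 h; 0% = infected wells without compound and 100% = uninfected wells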
RecA intein inh: blocks M. tuberculosis RecA intein splicing; cell-free RecA intein splicing, fluorescence; hit rate 0.75% among 290,000; inhibition, %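 (about 9 µM by stock and volumes)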; in the data active = inhibition above about 30%; inconclusive = no clear call, values can overlap the other calls;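 note: 0% = vehicle wells and 100% = reference inhibitor control wells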
Target sequence (P9WHJ3 whole entry, looked up): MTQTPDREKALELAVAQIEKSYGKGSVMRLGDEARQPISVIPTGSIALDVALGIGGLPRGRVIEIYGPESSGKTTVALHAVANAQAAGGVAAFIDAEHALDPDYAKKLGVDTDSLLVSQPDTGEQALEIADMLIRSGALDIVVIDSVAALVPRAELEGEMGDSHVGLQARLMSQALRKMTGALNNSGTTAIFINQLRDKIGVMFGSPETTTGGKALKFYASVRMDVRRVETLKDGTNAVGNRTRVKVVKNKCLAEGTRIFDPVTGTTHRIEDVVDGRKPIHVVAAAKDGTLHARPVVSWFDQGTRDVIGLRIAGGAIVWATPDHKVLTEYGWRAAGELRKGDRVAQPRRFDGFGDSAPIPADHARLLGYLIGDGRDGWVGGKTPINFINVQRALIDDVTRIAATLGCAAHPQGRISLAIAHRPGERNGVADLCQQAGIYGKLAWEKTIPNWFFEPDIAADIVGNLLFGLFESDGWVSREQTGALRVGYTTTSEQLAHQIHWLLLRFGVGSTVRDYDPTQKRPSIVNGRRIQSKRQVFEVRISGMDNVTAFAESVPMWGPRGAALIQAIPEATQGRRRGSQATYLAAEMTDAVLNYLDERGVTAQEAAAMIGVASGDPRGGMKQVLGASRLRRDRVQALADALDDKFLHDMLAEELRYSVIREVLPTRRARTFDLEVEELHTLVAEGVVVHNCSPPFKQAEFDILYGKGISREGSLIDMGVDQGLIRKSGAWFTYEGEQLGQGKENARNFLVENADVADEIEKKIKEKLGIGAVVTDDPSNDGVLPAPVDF
Mtb H37Rv: M. tuberculosis H37Rv growth inhibitors, H37Rv strain (AID 1626); M. tuberculosis H37Rv growth inhibition; higher % means a stronger effect; one-dose inhibition, % at 10 µM; IC50 in µM for titrated hits; hit rate 0.95% among 220,000;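 active = confirmed in a dose series; inconclusive = inhibition above 80% but not taken into the dose series; inactive = below 80% or under 30% at every dose of the series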;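 note: bacteria incubated seven days before Alamar blue readout; 0% = bacteria only wells and 100% = bacteria with antibiotic wells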
Mtb betalactam: beta-lactam sensitization of Mtb H37Rv | M. tuberculosis H37Rv growth with meropenem, percent inhibition; hits of this screen are not shown here | inhibition, % at 25 µM | hit rate 0.27% among 330,000;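 active = about 74% or more and at least 40 points above the plate without the antibiotic, then above 30% in a dose series; inconclusive = first-round hits that could not be retested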;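 note: growth measured after seven days incubation then overnight dye step; 0% = bacteria only wells and 100% = bacteria with antibiotic; twin plates without the antibiotic show which effects depend on it; some results filed as inactive read as strong as hits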
YopH inh: YopH (Yersinia) phosphatase inhibition; fluorescence Ex485/Em525; inhibition, %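 (about 10 µM by stock and volumes)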; hit rate 0.16% among 140,000; AID 898;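 active = inhibition of 50% or more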;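 note: controls were vehicle for no effect and minimum signal wells for full effect; inactives centre near -20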
Arbovirus inh repeat: second read-out of Arbovirus inh, no call of its own (marks repeat the call); inhibition, %; measured here: 10K subset replicate screen; many hits read low in the repeat;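 first of two repeat runs on a subset; 0% = infected and 100% = uninfected wells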
* = called active by the depositor; i = inactive; ? = inconclusive; . = no result given.

SMILES	Arbovirus inh	RecA intein inh	Mtb H37Rv	Mtb betalactam	YopH inh	others
Cc1cc([N+](=O)[O-])ccc1NC(=O)C[n+]1ccc(N(C)C)cc1	6	-2.7	-11%	-3	.
CC(=O)c1nn(-c2ccccc2)cc1C(=O)c1ccc(C)cc1	.	4.6	.	-4	.
Cc1ccc(-n2c(SCC(=O)NC3CCCCC3)nc3c(c2=O)SCC3)cc1	10	-0.1	13%	6	-24
COC(=O)c1sc2nc(N3CCCCC3)c3c(c2c1N)CCCC3	-6	4.4	0%	93	-42
O=C(O)CC(Cn1cnnn1)c1ccccc1 (stereo not drawn)	3	0.1	-9%	-13	-4	Arbovirus inh repeat=5
O=C(c1ccccc1)c1cc[n+]([O-])cc1	2	.	0%	6	25
CCCOc1ccc(NC(=O)CC2C(=O)N(CC)C(=S)N2CCNC(C)=O)cc1 (stereo not drawn)	4	-11	0%	0	-39
C=CCN(C(=O)Cn1c(C(=O)OC)cc2oc(C)cc21)c1ccccc1	4	-1.7	2%	4	-25
Cc1ccc(-c2nc(CN(C)C(C3CC3)C3CC3)c(C)o2)cc1	-7	1.2	-4%	-1	.
COc1ccccc1-c1nnc(SCC(=O)Nc2oc(C)c3c(C)n[nH]c(=O)c23)n1C	.	-1.8	.	-13	.
Cn1nnnc1SCC(=O)N1CCN(C(=O)c2ccco2)CC1	13	-1.9	-7%	-1	.
O=C(CNc1cccc2ccccc12)N/N=C/c1ccc(C(=O)O)cc1	-10	1.6	6%	8	-21
COc1ccc(S(=O)(=O)NCCSCc2cccs2)cc1	-4	-0.9	-3%	10	-42
Cc1ccc(-n2ncc(C(=O)N3CCN(C(=O)c4ccco4)CC3)c2C2CCN(C(=O)OC(C)(C)C)CC2)cc1C	.	-3.7	.	-8	.
COc1ccc(C2=C(C=Nc3c(C)n(C)n(-c4ccccc4)c3=O)C(c3ccccc3C)c3ccccc3O2)cc1OC (stereo not drawn)	-7	-1.0	13%	6	3
COC(=O)C1CN(C(=O)COc2ccc(Cl)c(C)c2)c2ccccc2O1 (stereo not drawn)	.	2.5	.	7	.
O=C(NNc1cccc(Cl)n1)c1ccccc1CC[N+](=O)[O-]	-9	1.2	-5%	-2	.
C=CCNC(=O)NC(=O)COC(=O)c1ccccc1Sc1ccc(C(F)(F)F)cc1[N+](=O)[O-]	10	-1.8	8%	0	-16
O=C(c1ccccc1)c1ccc(OCCCN2CCCC2)cc1	-11	-1.7	9%	-5	-17
CC(C)(O)C#Cc1ccc(C(=O)N2CCN(c3ccc(F)cc3)CC2)cc1	0	-2.3	-2%	3	.
OCC[C@@H]1C[C@@H](O)[C@H](O)[C@@]2(CCCCO2)O1	.	-0.6	-8%	1	.
C=CCNC(=S)N/N=C(\C)c1ccc(-n2ccnc2)cc1	10	.	-9%	89	.
COc1cc(OC)cc(C(=O)N2CCC(C(=O)N3CCOCC3)CC2)c1	.	-2.6	.	-14	.
COC(=O)c1sc2ccccc2c1-n1cccc1C(=O)C(=O)Nc1ccc(Cl)cc1	9	1.7	-6%	3	15
Nc1nc2ccccc2[nH]1	.	-3.3	.	-4	.
Cc1cccc(/C(N)=N/OC(=O)COc2ccc(Cl)c(C)c2)c1	0	3.0	3%	0	-33
Cc1ccn2c(CN(C)CCn3nc(C)cc3C)c(C(=O)N3CCCCCC3)nc2c1	3	1.1	3%	4	.
O=C(c1cc(-c2cccc(Cl)c2)on1)N1CCOCC1	.	1.5	.	1	.
OC1CCCN(Cc2ccc3ccc4cccc5ccc2c3c45)C1 (stereo not drawn)	-37	-33	2%	24	1
COc1ccc2nc(Nc3ccccc3OC)sc2c1	-5	4.8	-1%	9	.
CC(=O)Oc1ccc(-c2cccc(C(=O)NCC(=O)O)c2)cc1	5	1.9	-1%	-12	5
Cc1c(NC(=O)CSc2nncn2-c2ccccc2)c(=O)n(-c2ccccc2)n1C	.	0.7	.	-7	.
Cc1noc(/C=C/N(C)C)c1S(=O)(=O)N1CCCC(C(=O)NC(C)c2ccccc2)C1 (stereo not drawn)	-17	-0.5	1%	?	-38
C=CCc1cc(/C=N/n2cnnc2)cc(OCC)c1O	7	-1.7	-4%	4	-40	Arbovirus inh repeat=-2
COc1cc(C(C)=O)ccc1OCC(O)CN(CCO)Cc1ccccc1 (stereo not drawn)	20	-0.3	-6%	5	.
COc1cccc(NC(=O)CN2C(=O)COc3ccc(S(=O)(=O)N4CCOCC4)cc32)c1	.	3.7	.	-4	.
O=C(CN1C(=O)C2CC=CCC2C1=O)NCc1ccc2c(c1)OCO2 (stereo not drawn)	0	0.2	-16%	-11	10
CC(=O)c1nc(N2C(=O)CC(Cc3cc(C)cc(C)c3)C2=O)sc1C (stereo not drawn)	1	-1.7	0%	8	-14
Oc1c(Cl)c(Cl)c(Cl)c(Cl)c1Cl	.	-1.8	-2%	-2	.
O=C(O)CC(C(=O)O)c1cn(Cc2ccccc2)c2ccccc12 (stereo not drawn)	3	2.3	-9%	-1	-27
C/C(=N\N=C(N)N)c1ccc(Cl)cc1	-24	1.4	9%	9	12
CCCn1c2ccccc2c2cnn(CC(=O)NC3CCN(Cc4ccccc4)CC3)c(=O)c21	.	-1.0	.	-2	.
Nc1ccc(Nc2nc(-c3cccs3)cs2)cc1	-19	-6.3	-2%	23	.
Cc1ccc(-c2ccc(=O)n(CC(=O)N3CCN(c4cccc(C)c4)C(C)C3)n2)cc1 (stereo not drawn)	2	2.2	6%	83	-4
CSCc1ccc(C(=O)N2CCCC(Nc3ccc(F)cc3)C2)o1 (stereo not drawn)	.	0.9	.	-7	.
O=c1[nH]c2ccccc2c(O)c1Cc1ccccc1	-1	-3.5	0%	-1	.
Cc1ccc(-n2nc(C)c3cc(C(=O)O)sc32)cc1	-1	2.4	-2%	6	-35	Arbovirus inh repeat=4
COc1ccc(-n2nnnc2SCC(N)=O)cc1	0	-1.2	-3%	0	35
Cc1ccc(F)cc1S(=O)(=O)NCc1ccc(N2CCN(C)CC2)cc1	.	0.9	-2%	0	.
O=C(COC(=O)c1ccc(S(=O)(=O)N2CCCC2)cc1)Nc1ccc(N2CCOCC2)cc1	-2	-0.5	1%	-9	.
Nc1c(C(=O)Nc2ccccc2F)sc2nc(-c3ccco3)ccc12	-3	-23	-8%	28	-26
CCn1c(-c2nn(C)c(C)c2Cl)n[nH]c1=S	2	9.0	-2%	-2	-27
O=C(COC(=O)c1ccccn1)Nc1cccnc1Cl	.	-4.5	.	1	.
O=C(CCNC(=O)Cn1ccc2ccccc2c1=O)NCc1ccc(F)cc1Cl	4	-0.6	3%	-5	.
Cc1cccn2c(=O)c3cc(C(=O)NC4CCCC4)c(=N)n(CCCN4CCOCC4)c3nc12	.	i	.	-2	.
Cc1cc(C)n(Cc2cc(C(=O)O)c3ccccc3n2)n1	6	1.3	1%	-3	.
CC(=O)Nc1ccccc1NC(=O)C/C(C)=N/NC(=O)c1ccncc1	7	-3.0	?	99	.
Cc1ccc(-n2cc(CNC(C)c3cnn(C)c3C)c(-c3ccc(F)cc3)n2)cc1 (stereo not drawn)	-7	2.8	74%	-4	.
O=C(c1ccccc1)N1CCN(C(=O)c2ccc([N+](=O)[O-])cc2)CC1	-2	0.9	.	0	-2
O=C(CSc1ncnc2c1oc1ccccc12)NCc1ccco1	-17	4.2	-9%	5	-26

The list goes on, overlapping the part above by 6 compounds.
SMILES	Arbovirus inh	RecA intein inh	Mtb H37Rv	Mtb betalactam	YopH inh	others
Cc1cccn2c(=O)c3cc(C(=O)NC4CCCC4)c(=N)n(CCCN4CCOCC4)c3nc12	.	i	.	-2	.
Cc1cc(C)n(Cc2cc(C(=O)O)c3ccccc3n2)n1	6	1.3	1%	-3	.
CC(=O)Nc1ccccc1NC(=O)C/C(C)=N/NC(=O)c1ccncc1	7	-3.0	?	99	.
Cc1ccc(-n2cc(CNC(C)c3cnn(C)c3C)c(-c3ccc(F)cc3)n2)cc1 (stereo not drawn)	-7	2.8	74%	-4	.
O=C(c1ccccc1)N1CCN(C(=O)c2ccc([N+](=O)[O-])cc2)CC1	-2	0.9	.	0	-2
O=C(CSc1ncnc2c1oc1ccccc12)NCc1ccco1	-17	4.2	-9%	5	-26
Cc1ccnc(SCC(=O)n2c3c(c4ccccc42)CC(C)CC3)n1 (stereo not drawn)	-3	.	-3%	-4	-32
S=C(Nc1ccc(Cl)cc1)c1nc2ccccc2s1	3	0.6	65%	.	-64
CCCCC(=O)NNC(=O)c1c(O)c2ccccc2[nH]c1=O	.	-1.7	-7%	-2	.
CC1CCc2cc(F)ccc2N1C(=O)c1cnc2sccn2c1=O (stereo not drawn)	0	-4.4	0%	-1	-36
CCOc1ccc(N(C)Cc2cc(=O)oc3ccc(OCC)cc23)cc1	.	1.5	.	-4	.
O=C(CCC1CCCN(c2ncccn2)C1)NCc1ccccc1F (stereo not drawn)	1	-4.7	1%	0	.
CC(=O)c1cccc(S(=O)(=O)N2CCC(n3nnc4cc(F)ccc43)CC2)c1	4	-3.5	-9%	-3	7
CCOc1cc(C(=O)NC)cc(OCC)c1OCC	2	-0.4	-3%	11	-55
CN=c1scc(C)n1/N=C/c1cc(Br)c(O)c(Br)c1	16	-3.7	-3%	4	.
S=C(c1ccc(-c2ccc(Br)cc2)o1)N1CCCCC1	20	6.6	-1%	99	.
CCn1nc(C(=O)OCC(=O)N2CC(=O)Nc3ccccc32)c2ccccc2c1=O	-1	-1.1	1%	2	.
Cc1ccc2[nH]c(=O)c(CN(CCc3ccccc3)C(c3nnnn3Cc3ccco3)C(C)C)cc2c1 (stereo not drawn)	.	-0.9	23%	11	.
C/C=C(\C)CN1CCC(n2nccc2NC(=O)CCCc2ccccc2)CC1	.	0.2	.	0	.
O=C(COC(=O)CCC1CCCC1)Nc1ccccc1Sc1ccccc1	-5	21	-3%	8	-19
CC(NC(=O)C(=O)N1CCCCC1)C(c1cccs1)N1CCN(c2ccccc2F)CC1 (stereo not drawn)	.	0.3	.	-5	.
Cc1cc(-c2ccc(F)cc2)nc2cc(C(N)=O)nn12	5	-1.7	0%	-22	9
CCOC(=O)N1CCN(C2CC(=O)N(c3ccc(F)cc3)C2=O)CC1 (stereo not drawn)	-1	2.2	-9%	12	-35
O=C(CSc1ccccc1)NCCCc1ccccc1	-4	-0.4	4%	-12	.
Nc1nonc1-n1nnc(C(=O)N/N=C/c2ccc(O)cc2)c1COc1ccc(F)cc1	.	-3.3	-1%	0	.
CC(=O)Nc1ccc(S(=O)(=O)N[C@@H](C)C(=O)Nc2ccc(N3CCOCC3)cc2)cc1	7	-1.0	-11%	0	-14
CCOC(=O)C1(Cc2ccccc2C)CCCN(C(=O)c2cc(C3CC3)[nH]n2)C1 (stereo not drawn)	5	1.1	0%	-9	.
CN1C(C(=O)NCC2CC2)CC2Cn3c(nc4cc(Cl)c(Cl)cc43)C21 (stereo not drawn)	.	2.0	-3%	-6	.
Cc1nc(NC(=S)NC(=O)c2ccccc2)sc1C	.	0.3	.	1	.
Cc1c(Nc2ccc3nonc3c2[N+](=O)[O-])c(=O)n(-c2ccccc2)n1C	-3	3.3	3%	-1	.

Reprinted at random: three entries already listed
SMILES	Arbovirus inh	RecA intein inh	Mtb H37Rv	Mtb betalactam	YopH inh	others
CN1C(C(=O)NCC2CC2)CC2Cn3c(nc4cc(Cl)c(Cl)cc43)C21 (stereo not drawn)	.	2.0	-3%	-6	.
O=C(COC(=O)CCC1CCCC1)Nc1ccccc1Sc1ccccc1	-5	21	-3%	8	-19
Cc1cc(-c2ccc(F)cc2)nc2cc(C(N)=O)nn12	5	-1.7	0%	-22	9

(cont.)
SMILES	Arbovirus inh	RecA intein inh	Mtb H37Rv	Mtb betalactam	YopH inh	others
CC(C(=O)NCCC1=CCCCC1)c1ccc([N+](=O)[O-])cc1 (stereo not drawn)	5	-1.8	5%	-2	.
CCOC(=O)C(C)Oc1cccc2c(=O)n(CC(=O)N3CCN(C(=O)OCC)CC3)ccc12 (stereo not drawn)	4	5.6	3%	-2	-51
Cc1cc(NC(=O)CCC(=O)N(CC(=O)NC2CCCC2)Cc2cccs2)no1	5	-0.9	-7%	-7	.
CCN(CC)CC#CCOC(c1ccccc1)c1ccccc1	0	1.4	8%	5	.
COc1ccc(CCNC(=O)CSCc2c(F)cccc2Cl)cc1OC	2	0.2	1%	4	.
COc1ccc2[nH]cc(C3=CCNCC3)c2c1	.	6.1	3%	4	.
O=C(C1CCN(S(=O)(=O)c2cc(Cl)ccc2Cl)CC1)N1CCOCC1	.	2.4	.	-2	.
CCOc1ccccc1C(=O)NC1CC2CCCC(C1)N2Cc1ccccc1 (stereo not drawn)	-7	-4.5	-5%	4	-1
O=C1CN=C(c2ccccc2)c2cc(Br)ccc2N1	.	-0.1	.	3	.
CCOC(=O)C1(CCCc2ccccc2)CCN(Cc2nccn2CC)CC1	-7	1.3	2%	44	.
CCOC(=O)Cc1csc(NC(=O)CN2CCOCC2)n1	.	-1.3	.	0	.

These rows are one share of the data, so the mix of outcomes need not match the whole.
